# Mtb growth – Mycobacterium tuberculosis H37Rv growth inhibition, cell based, confirmatory dose response (AID 1949); M. tuberculosis H37Rv growth inhibition; most inactive calls were filed without a number and no value below 0 was filed; actives 1.6% (n = 100,000); inhibition, % at 10 µg/mL; hits with a dose series show IC50 in µg/mL;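 active means confirmed in a dose series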;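 further: bacteria grown 7 days with compound before Alamar blue readout; 0% = untreated bacteria and 100% = reference antibiotic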
# Starred values were filed as active, the others as inactive; i = inactive. Some of the compounds tested, so the mix of outcomes need not match the whole.
SMILES,Mtb growth
C=CCc1ccccc1OCCCCNCc1ccccc1,40%
CCOc1cc(S(=O)(=O)N2CCN(CC)CC2)ccc1Cl,i
COc1cccc(NC(=O)CSc2nnc(-c3cccc(C)c3)n2-c2ccccc2)c1,i
S=C(NCc1ccc(Cl)cc1)NC1CCCC1,i
C=CCOc1nc2c(c(=O)n(C)c(=O)n2C)n1Cc1ccc(Cl)c(Cl)c1,i
COc1ccc2nc(SCCOC(=O)Nc3ccc(Cl)cc3)nc(C)c2c1,i
CCOc1ccccc1NC(=O)C(C)Oc1ccc(Cl)cc1C (stereo not given),1%
COCCCNC(=O)CN(Cc1ccc(Br)cc1)S(=O)(=O)c1ccc(Cl)cc1,i
Cc1ccc([N+](=O)[O-])c(OCCn2cnc3ccccc32)c1,i
O=C(Nc1cccc(CCc2ccccn2)c1)NC1CCCCC1,39µg/mL*
C=CCn1c(SCC(=O)N2CCc3ccccc32)nnc1-c1ccc([N+](=O)[O-])cc1,i
O=C(O)c1coc(COCC(F)(F)F)c1,0%
Cc1cc(C)nc(/N=C(/N)Nc2cccc(F)c2)n1,i
COc1ccc(C(=O)Nc2cc(C(F)(F)F)ccc2N2CCCC2)cc1[N+](=O)[O-],5%
Cc1ccc(S(=O)(=O)Cc2ccc(Br)cc2)cc1,5%
COc1ccc(CCNC(=O)c2ccccc2OCC(=O)Nc2cccc(Cl)c2C)cc1OC,i
O=[N+]([O-])c1cccc(S(=O)(=O)Nc2cc(-c3c(O)ccc4ccccc34)c(O)c3ccccc23)c1,i
Cc1ccccc1CN(c1ccc(C(=O)Nc2ccc(Cl)cc2C)cc1)S(C)(=O)=O,i
COc1ccc(N(CC(=O)Nc2ccccc2SC)S(C)(=O)=O)c(OC)c1,i
CCCCNS(=O)(=O)c1ccc(NC(=O)c2cccs2)cc1,i
N#Cc1c(NC(=O)c2cccc(S(=O)(=O)N3CCCCC3)c2)sc2c1CCC2,i
O=C(Nc1cccc(Cl)c1Cl)c1ccccc1OCc1ccc(Cl)cc1,i
O=C(COc1ccc(Cl)cc1Cl)Nc1ccc(F)cc1F,i
O=[N+]([O-])c1ccn(Cc2ccc(F)cc2Cl)n1,i
CCOC(=O)C1CCCN(C(=O)c2cccs2)C1 (stereo not given),i

# Remaining list, next part.
SMILES,Mtb growth
CCOC(=O)CN1C(=N)N(c2nc(NC)nc(SC)n2)CC1=O,i
CCc1cccc(CC)c1NC(=O)C(F)(F)F,i
O=C(Nc1cccc(Cl)c1)c1ccc(=O)[nH]c1,i
COc1c(Cl)cc(Cl)cc1C(=O)Nc1ccc2oc(=O)ccc2c1,i
CCSc1nc2ccccc2n1Cc1ccccc1Br,i
N#Cc1cnn(Cc2ccc(Cl)cc2)c1N,i
CCOC(=O)N1CCN(c2nnnn2-c2ccccc2)CC1,i
CN(C)C(=O)COc1ccc(Br)cc1,i
COC(=O)c1c(NC(=S)N2CCN(Cc3c(C)nn(C)c3C)CC2)sc2c1CCC(C)C2 (stereo not given),19%
Cc1ccccc1C(=O)Nc1sc2c(c1C(=O)N1CCN(C)CC1)CCC2,i
Cc1cc(C)cc(NC(=O)c2cccc3c(Br)cccc23)c1,i
Cc1ccc2c(=O)c(C(=O)c3ccccc3Cl)coc2c1,i
COc1ccc(C(=O)Nc2nc(COc3ccccc3)cs2)c(OC)c1,i
CCN(CC)S(=O)(=O)c1ccc(C)c(C)c1C,i
COc1cccc(N2CCN(C3CC(=O)N(c4ccc(Cl)c(Cl)c4)C3=O)CC2)c1 (stereo not given),i
CCOC(=O)NNC(=O)Nc1ccc(Br)cc1,i
Cc1ccc(-n2nc3c4c(cccc4c2=O)-c2ccccc2-3)cc1,i
O=C(Nc1nc(-c2ccc(Br)cc2)cs1)c1ccccc1Cl,2%
Cn1cnnc1SCCOc1ccc(Cl)cc1,i
CCCNC(=O)c1ccc(CN2CCOCC2)cc1,i
Cc1cc(C(=O)NNC(=O)COc2c(C)cc(Br)cc2C)n[nH]1,i
CCCC(=O)c1ccc(N2CCN(C(=O)c3ccco3)CC2)c(F)c1,3%
CCCCc1ccc(NC(=O)c2cccc(OC(C)=O)c2)cc1,i
COc1cc([N+](=O)[O-])ccc1NC(=O)COc1ccc(Br)cc1C,i
Cc1nn(-c2ccc([N+](=O)[O-])cc2)c(C)c1N1C(=O)c2cccc3cc(Br)cc(c23)C1=O,0.39µg/mL*

# More results:
SMILES,Mtb growth
COc1ccccc1C1C2=C(CCCC2=O)Nc2nc(SCCC(C)C)[nH]c(=O)c21 (stereo not given),i
Cc1ccc(C(=O)NC(Cc2c[nH]c3ccccc23)C(=O)O)o1 (stereo not given),i
Nc1cc2c(cc1C(=O)c1ccc(Cl)cc1)OCCO2,i
COc1ccccc1-c1noc(-c2cccnc2)n1,i
CC1=C(C(=O)OC2CCCC2)C(c2ccccc2Br)C2=C(CCCC2=O)N1 (stereo not given),13%
O=C(c1ccccc1Br)N1CCN(c2ccc(F)cc2)CC1,i
CC(C)Oc1ccc(NC(=O)CCCOc2ccc(Cl)cc2)cc1,i
COC(=O)c1c(NC(=O)CCCN2C(=O)c3ccccc3C2=O)sc2c1CCCC2,7%
CC(=O)Nc1ccc(NC(=O)CN(C2CCCCC2)S(=O)(=O)c2ccc(C)cc2)cc1,i
CCOc1ccccc1C(=O)NCCCn1ccnc1,i
O=C(Nc1ccc2c(c1)-c1cc(NC(=O)C(F)(F)F)ccc1C2)C(F)(F)F,2%
CC1(C)CC(=O)C2=C(C1)c1oc(N)nc1C2c1ccoc1 (stereo not given),i
CN1CCN(c2ccc([N+](=O)[O-])cc2C=O)CC1,i
Cc1ccc(O)c(NC(=O)COc2cccc3ccccc23)c1,i
CN(CCC#N)CC(=O)Nc1ccc(Cl)c(Cl)c1,i
Cc1ccc(S(=O)(=O)Nc2cccc(C(=O)Nc3cccc(C)c3)c2)cc1,0%
CC1CCN(CCCCOc2ccc(I)cc2)CC1,i
CN(C)C(=O)Nc1ccc(S(N)(=O)=O)cc1,2%
CCc1ccccc1N(CC(=O)NCCSc1ccc(Cl)cc1)S(C)(=O)=O,i
Cc1ccc(NC(=O)CSC2=C(C#N)C(c3ccco3)C3=C(CCCC3=O)N2)cc1C (stereo not given),i
CS(=O)(=O)N(CC(=O)NCc1ccco1)Cc1ccc(Cl)cc1,i
Oc1ccc(-c2nc3ccccc3s2)c(Cl)c1O,3%
CC1=C(C(=O)Nc2ccccc2F)C(c2ccc(F)cc2)C2=C(CC(C)(C)CC2=O)N1 (stereo not given),i
O=C(O)c1ccc(-n2cnnn2)cc1Cl,i
CCC(Oc1ccccc1)C(=O)Nc1ccc(S(=O)(=O)NCCc2ccccc2)cc1 (stereo not given),0%

# Among those listed so far, these have bromine:
SMILES,Mtb growth
COCCCNC(=O)CN(Cc1ccc(Br)cc1)S(=O)(=O)c1ccc(Cl)cc1,i
Cc1ccc(S(=O)(=O)Cc2ccc(Br)cc2)cc1,5%
CCSc1nc2ccccc2n1Cc1ccccc1Br,i
CN(C)C(=O)COc1ccc(Br)cc1,i
Cc1cc(C)cc(NC(=O)c2cccc3c(Br)cccc23)c1,i
CCOC(=O)NNC(=O)Nc1ccc(Br)cc1,i
O=C(Nc1nc(-c2ccc(Br)cc2)cs1)c1ccccc1Cl,2%
Cc1cc(C(=O)NNC(=O)COc2c(C)cc(Br)cc2C)n[nH]1,i
COc1cc([N+](=O)[O-])ccc1NC(=O)COc1ccc(Br)cc1C,i
Cc1nn(-c2ccc([N+](=O)[O-])cc2)c(C)c1N1C(=O)c2cccc3cc(Br)cc(c23)C1=O,0.39µg/mL*
CC1=C(C(=O)OC2CCCC2)C(c2ccccc2Br)C2=C(CCCC2=O)N1 (stereo not given),13%
O=C(c1ccccc1Br)N1CCN(c2ccc(F)cc2)CC1,i

# (continued)
SMILES,Mtb growth
Cc1nc(SCCc2ccccc2)c(C#N)c(C)c1C,i
COc1cc(OC)c(C(=O)NNC(=S)Nc2cccc3ccccc23)cc1OC,i
Cc1nn(-c2cc(N3CCCCC3)ccc2N)c(=O)c2ccccc12,5%
O=C(Nc1ccccc1C(=O)N1CCCCC1)c1ccco1,i
COc1cc(NC(=S)NC(=O)c2ccccc2F)ccc1NC(=O)c1ccccc1Cl,i
Cc1cc(C)cc(N(CC(=O)Nc2ccc(F)c(Cl)c2)S(C)(=O)=O)c1,i
CCOC(=O)C1(NC(=S)N(CC)CC)Sc2cc(C)ccc2NC1=O (stereo not given),11%
O=C(CSc1nnnn1-c1ccccc1)Nc1nc(-c2ccc(Br)cc2)cs1,1%
CCCCNCCOc1cccc(CC)c1,i
CCS(=O)(=O)n1nc(-c2ccc(C)cc2)nc1N,0%
COc1cc(C(=S)N(C)C)ccc1O,i
CC(C)(Oc1ccc(Cl)cc1)C(=O)Nc1ccc(S(=O)(=O)Nc2nccs2)cc1,i
O=C(CSc1ccccn1)c1ccc(Cl)c(Cl)c1,i
COc1cc(NC(=S)NN2CCN(C)CC2)cc(OC)c1,i
CC(Oc1ccccc1F)C(=O)Oc1ccc(Cl)cc1 (stereo not given),0%
COc1cc2ccccc2cc1C(=O)NC(=S)Nc1cc(-c2nc3ccc(C)cc3o2)ccc1C,i
N#CCc1ccc(NC(=O)CN2C(=O)c3cccc4cccc2c34)cc1,1%
COC(=O)c1ccc(NC(=O)c2cccc(NC(=O)C(C)C)c2)cc1,i
COc1ccc(Cl)cc1S(=O)(=O)N1CCc2ccccc2C1,i
COc1ccccc1-c1c(C)oc2cc(OCc3ccccc3)ccc2c1=O,9.2µg/mL*
Cc1nccn1-c1ncnc2sc3c(c12)CCCC3,i
Cc1cccn2cc(CSc3ccccc3N)nc12,i
O=C1c2ccccc2C(=O)N1CC1c2ccccc2CCN1S(=O)(=O)c1ccccc1 (stereo not given),i
FC(F)(F)c1ccccc1NC(=S)N1CCN(c2ccccn2)CC1,i
COc1ccc(C(=O)n2cnnc2N)cc1[N+](=O)[O-],i

# The closing eight entries of the section above lead into the next.
SMILES,Mtb growth
COC(=O)c1ccc(NC(=O)c2cccc(NC(=O)C(C)C)c2)cc1,i
COc1ccc(Cl)cc1S(=O)(=O)N1CCc2ccccc2C1,i
COc1ccccc1-c1c(C)oc2cc(OCc3ccccc3)ccc2c1=O,9.2µg/mL*
Cc1nccn1-c1ncnc2sc3c(c12)CCCC3,i
Cc1cccn2cc(CSc3ccccc3N)nc12,i
O=C1c2ccccc2C(=O)N1CC1c2ccccc2CCN1S(=O)(=O)c1ccccc1 (stereo not given),i
FC(F)(F)c1ccccc1NC(=S)N1CCN(c2ccccn2)CC1,i
COc1ccc(C(=O)n2cnnc2N)cc1[N+](=O)[O-],i
COc1cc(NC(=O)C(C)C)ccc1NC(=O)C(C)C,i
CCC(=O)Oc1ccc(C(=O)Nc2cccc(C(=O)NCC(C)C)c2)cc1,7%
CCOCc1nnc(NC(=O)CCCOc2ccccc2)s1,2%
CCN(C(=O)Nc1ccccc1OC)c1ccc(C(O)(C(F)(F)F)C(F)(F)F)cc1,i
S=C(NCc1ccc(Cl)cc1)NCc1cccnc1,i
CC(=O)Nc1ncc(CN2CCN(C(c3ccccc3)c3ccccc3)CC2)s1,i
Fc1ccc(CNC(=S)Nc2cccc(C(F)(F)F)c2)cc1,i
CCCc1ccc(OCC(O)CN2CCc3ccccc3C2)cc1 (stereo not given),44%
CC(C)CC(NC(=O)CC12CC3CC(CC(C3)C1)C2)C(=O)N1CCOCC1 (stereo not given),i
O=C(Nc1nnc(C2CCCCC2)s1)c1ccc2c(c1)OCO2,i
Cc1ccccc1NC(=O)c1cccc(NC(=O)c2ccco2)c1,i
Cc1onc(-c2ccccc2)c1C(=O)Nc1ccc(Cl)cn1,i
CCOc1ccc(N(C(C)C(=O)Nc2ccccc2C(=O)NCCc2ccccc2)S(C)(=O)=O)cc1 (stereo not given),i
O=C(NC(=S)Nc1ccc(S(=O)(=O)N2CCOCC2)cc1)c1ccco1,i
COC(=O)c1cccc(NC(=O)Cn2ccnc2)c1,i
CS(=O)(=O)c1ccc2nc(NC(=O)Nc3ccccc3)sc2c1,i
CCc1cccc(CC)c1NC(=O)CSCc1ccccc1Br,i
CC1CCCCN1CC(O)COc1ccc(Br)cc1 (stereo not given),i
COc1ccc(NC(=O)c2ccc(C(C)C)cc2)c(OC)c1,7%
O=C(NCc1ccco1)C1CCN(S(=O)(=O)c2ccc(Cl)cc2)CC1,i
CN(C)S(=O)(=O)c1ccc(C(=O)Nc2nccs2)cc1,i
COc1ccc(Cl)cc1S(=O)(=O)Nc1c(C)cc(C)cc1C,i
O=C(c1ccc([N+](=O)[O-])cc1)N(Cc1cccs1)C1CCS(=O)(=O)C1 (stereo not given),i
COc1ccc(OC)c(NC(=S)Nc2ccc(Cl)cc2Cl)c1,i
CCCCC(=O)Nc1cccc(NC(=O)C(C)C)c1,i

# New compounds follow.
SMILES,Mtb growth
Cc1cccc(NC(=O)c2csc(-c3ccccc3)c2-c2ccccc2)c1,21%
Nc1nnc(CCCCn2c(-c3nonc3N)nc3ccccc32)s1,4%
CC(C)N1C(=O)CC(Nc2ccc(N3CCOCC3)cc2)C1=O (stereo not given),i
COc1ccccc1CNC(=O)N(C)C,i
COc1ccc(S(=O)(=O)Nc2ccc(NC(C)=O)cc2)cc1[N+](=O)[O-],i
O=C(c1ccc([N+](=O)[O-])cc1)N1CCN(C(=O)c2cccnc2)CC1,i
Cc1nc2ccccn2c1/C(O)=C1\C(=O)C(=O)N(CCN2CCOCC2)C1c1cccs1 (stereo not given),i
Cc1ccc(NC(=O)Nc2ccc(F)cc2F)c([N+](=O)[O-])c1,i
Cc1ccc(NC(=O)C(=O)NCCN2CCN(S(C)(=O)=O)CC2)cc1C,5%
COc1ccc(/C=C/c2ccc3ccccc3n2)cc1,i
COc1cccc(NC(=O)C(C(C)C)N2C(=O)c3ccccc3C2=O)c1 (stereo not given),i
Cc1noc(NS(=O)(=O)c2ccc(NC(=O)c3ccc(Cl)s3)cc2)c1C,i
N#Cc1ccccc1S(=O)(=O)N1CCCCC1,i
COc1ccc(N2CCN(S(=O)(=O)c3ccccc3C(F)(F)F)CC2)cc1,i

# From PubChem
